BJeLR viability: BJeLR cell viability loss; AID 1554; inhibition, % (concentration not given with the values); BJeLR (HRASV12) viability, CellTiter-Glo ATP luminescence, 48 h; reference of the scale not given here; 0.17% of 300,000 active;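 active means replicate mean above 50%; inconclusive means above 50% but judged a plate artefact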;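 further: 50 nL library stock added to about 25 µL; numbers are from one replicate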
ugtP null kill: compounds lethal to S. aureus RN4220 ugtP deletion mutant; 0.54% of 330,000 active; OD600 growth, 16 h; some inactives read as strong as hits; growth inhibition, % (test concentration not listed);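 active means z-score under -3 and OD600 up to 0.15 on both plates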;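 further: plate controls were untreated wells for no effect and antibiotic for full effect; wells of about 80 µL received 100 nL stock; the first replicate is given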
Bead autofluor: compound fluorescence in toxin protease inhibitor counterscreen; compound autofluorescence counterscreen, microsphere flow cytometry; hits give high values; fluorescence intensity (concentration not given with the values); 3.1% of 360,000 active; AID 624483;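 active means at least 3 SD above the mean of all compounds, about 16000 in these data; inconclusive means too few beads counted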;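 further: 100 nL of 1 mM stock went into each well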
Mtb hypoxia rep: Mtb hypoxia fluorescent reporter inhibition; M. tuberculosis hypoxia-regulated fluorescent reporter, fluorescence; fluorescence inhibition, % (no concentration beside the values); 0.1% of 300,000 active;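 active means 35 to 45% if threefold the growth effect, above 45% if 1.5-fold the growth effect; inactive means the rest, general growth blockers included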;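 further: wells of about 50 µL received 100 nL stock; 0% = vehicle wells and 100% = reference inhibitor wells; whole bacteria with a GFP reporter of the hypoxia response; strong numbers were not always called active; many hits fall short of the cut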
Sa RN4220 lethal: S. aureus RN4220 growth inhibition; OD600, 16 h; inhibition, % (no concentration beside the values); 0.33% of 330,000 active; AID 1259311;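 active means z-score of -3 or lower and OD600 up to 0.18 on both plates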;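 further: plate controls were untreated cells for no effect and reference antibiotic for full effect; stock transfer was 100 nL into about 80 µL; one replicate is shown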
PrP UTR inh: inhibition of PrP 5' UTR reporter expression; cell-based PrP 5' UTR mRNA reporter, plate reader; inhibition, % (no concentration beside the values); 0.35% of 340,000 active; AID 488862;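 active means every replicate at 50% or more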;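 further: 0 = median of the neutral control wells; tested in H4 reporter cells; numbers are from one replicate; inactives centre near -14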
Mtb hypoxia rep growth: further read-out of Mtb hypoxia rep, marked with its call; growth inhibition, %; measured here: M. tuberculosis growth (absorbance);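 0% = vehicle and 100% = reference antibiotic; read after six days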
* marks the source's active call; other numbers are inactive results; ? = inconclusive; . = not tested or not shown.

Values in the order – BJeLR viability, ugtP null kill, Bead autofluor, Mtb hypoxia rep, Mtb hypoxia rep growth, Sa RN4220 lethal, PrP UTR inh
O=C(O)c1ccc(N/N=C/c2cc3c(cc2[N+](=O)[O-])OCO3)cc1
  -2, ., 3352, ., ., ., 26
CCCCn1c(N)c(N(CCOC)C(=O)c2cc(Cl)nc3ccccc23)c(=O)[nH]c1=O
  -13, 2, ?, 7, -5, 6.6, -18
Cc1nn(Cc2ccc(Cl)cc2)c(C)c1NC(=O)CSc1n[nH]c(C)c1[N+](=O)[O-]
  -2, -10, 2485, -5, 3, 5.5, -7
O=C(CN1C(=O)C2(OCCO2)c2ccccc21)c1ccc(Cl)cc1
  -2, 1, 16345*, 6, 13, 1.2, -3
O=C(NCc1ccc(F)cc1)C(c1ccc(F)cc1)N(C(=O)c1csnn1)C1CC1 (configuration not stated)
  -4, 2, 5786, -1, -2, 1.3, -1
COCCN=C1NC(c2cccc(C(F)(F)F)c2)C(C(=O)OC)=C(C)N1Cc1ccccc1 (configuration not stated)
  ., -23, ., 4, 10, -1.9, .
O=C(NCC1CCCO1)c1cc(-c2ccccc2)on1 (configuration not stated)
  15, -1, 10431, 13, 11, 3.4, -121
Cc1ccc(Cl)cc1NC(=S)N(C)N
  -10, 9, 3589, 4, 0, 5.2, -13
CCc1nn(CC(=O)NCc2ccccc2Cl)c(=O)c2cccn12
  -15, 2, 5964, 3, 11, 2.7, -1
Cc1ccc(C(=O)NN=Cc2ccc(-c3cccc(Cl)c3)o2)cn1
  ., -9, ., 5, 9, -1.0, .
O=C(Nc1ccccc1)/C(=C/c1ccc([N+](=O)[O-])cc1)NC(=O)c1ccccc1
  -12, 7, 10769, 17, 1, 9.1, 12
CCCCOC(=O)C1=C(C)NC(=O)NC1c1cc2c(cc1Br)OCO2 (configuration not stated)
  -3, -12, 3792, -9, 6, 2.4, -8
CC12C=CC(=O)C=C1CCC1C2C(=O)CC2(C)C1CCC2(O)C(=O)CO (configuration not stated)
  ., 1, 4282, 6, 0, 9.8, 10
CCN(c1ccccc1)S(=O)(=O)c1ccc(C(=O)NCC2(N(C)C)CCCCC2)cc1
  ., -1, 2838, 5, 2, -0.9, -12
Cc1ccc2c(c1)C1CN(C)CCC1N2C(=O)c1ccc(Cl)c(S(=O)(=O)N2CCOCC2)c1 (configuration not stated)
  -18, -4, 4346, 0, 10, 2.9, -15
CN(Cc1ccccc1)C(=O)COC(=O)COc1ccc(C#N)cc1
  1, 4, 5545, 2, 7, -0.3, -19
COC(=O)c1cc(S(=O)(=O)NCC2CCN(CCc3cccs3)CC2)cn1C
  8, 8, 5633, 4, -3, 1.4, 10
Cc1nn(CCc2n[nH]c(=S)n2-c2cccc(Cl)c2)c(C)c1[N+](=O)[O-]
  5, -4, 10797, 3, 8, -0.1, -3
Cc1cc(C)n(-c2ccc(F)cc2CN2CCN(Cc3ccccc3)C(CCO)C2)n1 (configuration not stated)
  8, -63, 4462, 15, 6, 8.1, -15
CCCCCN(C(=O)NC(=O)NC(C)CC)S(C)(=O)=O (configuration not stated)
  6, -4, 8389, 0, 4, -3.4, 6
COCCn1c(C)cc(C(=O)COC(=O)CCS(=O)(=O)c2ccc(C)cc2)c1C
  8, 4, 6959, 8, 1, 3.4, -17
Cc1cc2c(c(=O)n1CCCn1ccnc1)C(c1ccco1)C(C#N)=C(N)O2 (configuration not stated)
  -9, -2, 22337*, -7, -3, 0.2, 3
CCn1c(=O)n(CC)c2cc([N+](=O)[O-])c(N3CCNCC3)cc21
  2, 3, 4848, 7, 7, 2.4, -13
CC(=O)N1c2ccc(S(=O)(=O)NCC3CCC(C(=O)Nc4ncccc4C)CC3)cc2CC1C (configuration not stated)
  3, 6, 5072, 4, -1, 1.3, -14
CCCc1cc(=O)oc2cc(OCC(=O)NCCCN3CCOCC3)c(Cl)cc12
  7, -8, 4147, -10, -4, -2.5, 4
CC(=O)c1c(C)[nH]c(C(=O)OCc2ccc(Br)cc2)c1C
  2, 12, 3515, 6, 2, 14, -29
Cc1cccc(N(C)S(=O)(=O)c2cccc3nsnc23)c1
  0, 4, 3253, 21, 13, 6.7, -12
CCC(=O)Nc1ccc2c(c1)nc(CCNC(=O)c1ccco1)n2C
  6, 11, 3498, 3, -2, 0.5, -22
Cc1ccc(-c2nc3ccccc3o2)cc1NC(=O)Cc1cccs1
  -8, -5, 2852, 2, 0, 0.6, -15
COc1cccc(NC(=S)Nc2ccc(F)cc2)c1
  1, 1, 3845, 9, 14, 3.3, -20

Next records:
Letter code: A = BJeLR viability; B = ugtP null kill; C = Bead autofluor; D = Mtb hypoxia rep; E = Mtb hypoxia rep growth; F = Sa RN4220 lethal; G = PrP UTR inh
mol: CCOc1ccc(-c2c(C(=O)NN=Cc3ccc(O)cc3)nnn2-c2nonc2N)cc1
  A = .	B = 1	C = .	D = 10	E = -9	F = 2.3	G = .

mol: Cc1ccc(CNC(=O)CCn2cc(-c3ccc(C)cc3)nc2-c2ccncc2)cc1
  A = 5	B = 5	C = 4051	D = -6	E = -1	F = 0.8	G = -6

mol: N#C/C(=C/c1ccc(O)c(O)c1)c1nc2ccccc2[nH]1
  A = 2	B = .	C = 4825	D = .	E = .	F = .	G = -31

mol: Cc1ccc(-n2nnnc2-c2cnn(-c3cccc(F)c3)c2C(F)(F)F)cc1
  A = 1	B = -7	C = 3965	D = 5	E = 3	F = 2.6	G = 2

mol: CN(CCOc1ccccc1)C(=O)CCc1nc2sc3c(c2c(=O)[nH]1)CCCC3
  A = -7	B = -7	C = 7841	D = 5	E = -1	F = 7.9	G = -3

mol: CCn1c(SCC(N)=O)nc2cc(S(=O)(=O)N3CCOCC3)ccc21
  A = 2	B = 2	C = 3502	D = 7	E = 3	F = -1.3	G = -8

mol: CC(C)CSc1ncnc2c1oc1nc3c(cc12)COC(C)(C)C3
  A = 4	B = 7	C = 20132*	D = 1	E = 3	F = 3.2	G = -13

mol: COCCN1CN(S(=O)(=O)c2ccccc2)c2nc3ccccc3nc21
  A = -4	B = 4	C = 2407	D = 4	E = -1	F = -7.4	G = -11

mol: Cc1ccc(SCC(=O)Nc2ccc(N3CCOCC3)cc2)cc1
  A = -6	B = 8	C = 2175	D = 5	E = 0	F = 4.4	G = -19

mol: COc1ccc(NC(=O)CN(C)C(=O)c2ccc(NS(=O)(=O)c3ccc(F)cc3)cc2)cc1
  A = -4	B = 7	C = ?	D = -3	E = 8	F = -0.9	G = -23

mol: NC(=O)Cn1c(=O)n(CC(=O)N2CCCCC2)c(=O)c2sccc21
  A = 4	B = 11	C = 5842	D = 5	E = -8	F = 2.6	G = -5

mol: Cc1ccc(C(=O)NC2CCCc3ccccc32)cc1[N+](=O)[O-] (configuration not stated)
  A = 7	B = -3	C = 4595	D = 8	E = -4	F = -2.1	G = -27

mol: Cc1ccccc1C(=O)OCCN(C)Cc1ccccc1
  A = 1	B = 7	C = 2251	D = 11	E = 4	F = 3.7	G = -119

mol: COc1cccc(C2SCC(=O)N2c2ccc(Br)cc2)c1OC (configuration not stated)
  A = -8	B = 36	C = 2118	D = -4	E = -3	F = 6.6	G = -36

mol: O=C(Cc1coc(-c2ccc(F)cc2)n1)N1CCOCC1
  A = -5	B = -7	C = 2753	D = 1	E = 10	F = -12	G = -15

mol: Cc1csc(NC(=O)CSc2nc(C)cs2)n1
  A = -7	B = 0	C = 5880	D = .	E = .	F = 1.0	G = -16

mol: Cc1ccc(C=NNC(=O)Cn2cncn2)cc1
  A = .	B = 8	C = .	D = 3	E = -5	F = 2.9	G = .

mol: O=C(NNC(=O)c1ccccc1Br)c1ccc(Cl)c(Cl)c1
  A = 3	B = -7	C = 9305	D = 4	E = 1	F = 21	G = -26

mol: Cc1ccc(C(=O)NCC(=O)OCc2nnc(-c3ccc([N+](=O)[O-])cc3)o2)s1
  A = .	B = 2	C = 3853	D = 11	E = 6	F = 2.5	G = -18

mol: COc1ccc(C2=NOC(Cn3nc(-c4ccccc4)cc3C(=O)NCc3ccco3)C2)cc1 (configuration not stated)
  A = .	B = -10	C = 3626	D = 6	E = 1	F = -10	G = -24

mol: COCC1CCN(C(=O)CC2C(=O)NCCN2Cc2cccc(Oc3ccccc3)c2)CC1 (configuration not stated)
  A = 8	B = 1	C = 5552	D = 5	E = 5	F = 0.6	G = -15

mol: CS(=O)(=O)N1CCN(c2ccccc2NC(=O)c2cc3ccccc3o2)CC1
  A = 6	B = 7	C = 5814	D = 5	E = -1	F = 0.1	G = -2

mol: O=C1Nc2ccccc2C(O)(C(=O)NCc2ccco2)N1c1ccccc1 (configuration not stated)
  A = -6	B = -3	C = 4498	D = -2	E = -8	F = -1.7	G = -22

mol: CC(NC(=O)COC(=O)/C=C/c1cccc(F)c1)c1ccccc1 (configuration not stated)
  A = .	B = 2	C = .	D = 9	E = 3	F = 0.7	G = -14

mol: CC(N=C1NS(=O)(=O)c2ccccc21)C(=O)NCc1ccncc1 (configuration not stated)
  A = .	B = 8	C = 6021	D = 3	E = 0	F = 2.2	G = -10

mol: CCCSc1nc(N2CCOCC2)c2c(c1C#N)CCCC2
  A = -6	B = 82	C = 4743	D = 14	E = 3	F = -4.2	G = -5

mol: Cc1cccnc1NC(=O)CCc1nnc2ccc(N3CCC4(CC3)OCCO4)nn12
  A = -5	B = 5	C = 5470	D = 10	E = -5	F = 5.2	G = -21

mol: CC(=O)C1C(c2cccc([N+](=O)[O-])c2)C2C(C)=NN=C2CC1(C)O (configuration not stated)
  A = 7	B = 2	C = 8934	D = 5	E = -2	F = -0.1	G = -22

mol: CCC(=O)c1ccc(N2CCN(C(=O)COc3ccccc3F)CC2)c(F)c1
  A = 4	B = -4	C = 4549	D = -3	E = 0	F = 6.8	G = -48

mol: Cc1ccc(NC(=O)C(C)N2C(=O)C3C4CC(C(Br)C4Br)C3C2=O)cc1 (configuration not stated)
  A = -8	B = -10	C = 22632*	D = 2	E = 6	F = 1.4	G = 7

mol: CCOc1cc(/C=C2\SC(=S)N(NC(=O)c3cccnc3)C2=O)ccc1O
  A = -9	B = 0	C = 4514	D = 5	E = 13	F = 2.1	G = -26

mol: COc1ccc(CCNC(=O)Nc2ccc3c(c2)OCO3)cc1OC
  A = -4	B = 4	C = 6287	D = 12	E = 2	F = 0.5	G = -19

mol: Cc1cccc(-c2c(NC(=O)c3ccco3)oc3c(C)cccc3c2=O)c1
  A = -5	B = -1	C = 4910	D = -1	E = 1	F = 0.0	G = -24

mol: COc1cccc(N=Nc2c(N)[nH][nH]c2=O)c1
  A = -10	B = -1	C = 2102	D = 13	E = -4	F = 5.3	G = -49

Compound profiles (already shown). Order of values: BJeLR viability, ugtP null kill, Bead autofluor, Mtb hypoxia rep, Mtb hypoxia rep growth, Sa RN4220 lethal, PrP UTR inh
`CCn1c(=O)n(CC)c2cc([N+](=O)[O-])c(N3CCNCC3)cc21` is entered as 2, 3, 4848, 7, 7, 2.4, -13
`Cc1cc(C)n(-c2ccc(F)cc2CN2CCN(Cc3ccccc3)C(CCO)C2)n1` (configuration not stated) is entered as 8, -63, 4462, 15, 6, 8.1, -15
`CC(C)CSc1ncnc2c1oc1nc3c(cc12)COC(C)(C)C3` is entered as 4, 7, 20132*, 1, 3, 3.2, -13
`Cc1ccc(C(=O)NC2CCCc3ccccc32)cc1[N+](=O)[O-]` (configuration not stated) is entered as 7, -3, 4595, 8, -4, -2.1, -27
`Cc1ccc(C(=O)NCC(=O)OCc2nnc(-c3ccc([N+](=O)[O-])cc3)o2)s1` is entered as ., 2, 3853, 11, 6, 2.5, -18

In a second layout: results already given
> Cc1ccc(NC(=O)C(C)N2C(=O)C3C4CC(C(Br)C4Br)C3C2=O)cc1 (configuration not stated)
- BJeLR viability: -8
- ugtP null kill: -10
- Bead autofluor: 22632*
- Mtb hypoxia rep: 2
- Mtb hypoxia rep growth: 6
- Sa RN4220 lethal: 1.4
- PrP UTR inh: 7

> CCOc1cc(/C=C2\SC(=S)N(NC(=O)c3cccnc3)C2=O)ccc1O
- BJeLR viability: -9
- ugtP null kill: 0
- Bead autofluor: 4514
- Mtb hypoxia rep: 5
- Mtb hypoxia rep growth: 13
- Sa RN4220 lethal: 2.1
- PrP UTR inh: -26

> COc1ccc(CCNC(=O)Nc2ccc3c(c2)OCO3)cc1OC
- BJeLR viability: -4
- ugtP null kill: 4
- Bead autofluor: 6287
- Mtb hypoxia rep: 12
- Mtb hypoxia rep growth: 2
- Sa RN4220 lethal: 0.5
- PrP UTR inh: -19

> Cc1cccc(-c2c(NC(=O)c3ccco3)oc3c(C)cccc3c2=O)c1
- BJeLR viability: -5
- ugtP null kill: -1
- Bead autofluor: 4910
- Mtb hypoxia rep: -1
- Mtb hypoxia rep growth: 1
- Sa RN4220 lethal: 0.0
- PrP UTR inh: -24

Screens from PubChem BioAssay.
